# High-throughput results from PubChem.
# A1 inh: inhibitors of the anti-apoptotic protein A1, read as caspase activation; MEF A1-2A-BIM cells, Caspase-Glo 3/7 luminescence, 3 h; percent of clofoctol response, vehicle zero; caspase activation, % (test concentration not listed); 330,000 tested, 0.066% active; AID 2462;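 active = over half of replicate activation scores above 10%, or exactly half above 10 with the replicate mean above 10; inconclusive = replicate mean below 10 yet half the replicates above 10; inactive = over half of replicates below 10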;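 also: wells of about 30 µL received 50 nL stock; many hits fall short of the cut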
# LANA-H2A inh: blocks KSHV LANA binding to histone H2A/H2B; 320,000 tested, 0.6% active; cell-free LANA-H2A/H2B peptide, fluorescence polarization; inhibition, % (test concentration not listed); Q9QR71; in the data active = inhibition mostly above about 10%, no sharp cut-off; inactive = mostly below about 6.7%;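 also: stock transfer was 7.5 nL into about 10 µL; 0% = median of vehicle wells and 100% = median of positive control wells; one replicate is shown; the record names a cut of 25% in any replicate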
# Target sequence (Q9QR71 whole entry, looked up): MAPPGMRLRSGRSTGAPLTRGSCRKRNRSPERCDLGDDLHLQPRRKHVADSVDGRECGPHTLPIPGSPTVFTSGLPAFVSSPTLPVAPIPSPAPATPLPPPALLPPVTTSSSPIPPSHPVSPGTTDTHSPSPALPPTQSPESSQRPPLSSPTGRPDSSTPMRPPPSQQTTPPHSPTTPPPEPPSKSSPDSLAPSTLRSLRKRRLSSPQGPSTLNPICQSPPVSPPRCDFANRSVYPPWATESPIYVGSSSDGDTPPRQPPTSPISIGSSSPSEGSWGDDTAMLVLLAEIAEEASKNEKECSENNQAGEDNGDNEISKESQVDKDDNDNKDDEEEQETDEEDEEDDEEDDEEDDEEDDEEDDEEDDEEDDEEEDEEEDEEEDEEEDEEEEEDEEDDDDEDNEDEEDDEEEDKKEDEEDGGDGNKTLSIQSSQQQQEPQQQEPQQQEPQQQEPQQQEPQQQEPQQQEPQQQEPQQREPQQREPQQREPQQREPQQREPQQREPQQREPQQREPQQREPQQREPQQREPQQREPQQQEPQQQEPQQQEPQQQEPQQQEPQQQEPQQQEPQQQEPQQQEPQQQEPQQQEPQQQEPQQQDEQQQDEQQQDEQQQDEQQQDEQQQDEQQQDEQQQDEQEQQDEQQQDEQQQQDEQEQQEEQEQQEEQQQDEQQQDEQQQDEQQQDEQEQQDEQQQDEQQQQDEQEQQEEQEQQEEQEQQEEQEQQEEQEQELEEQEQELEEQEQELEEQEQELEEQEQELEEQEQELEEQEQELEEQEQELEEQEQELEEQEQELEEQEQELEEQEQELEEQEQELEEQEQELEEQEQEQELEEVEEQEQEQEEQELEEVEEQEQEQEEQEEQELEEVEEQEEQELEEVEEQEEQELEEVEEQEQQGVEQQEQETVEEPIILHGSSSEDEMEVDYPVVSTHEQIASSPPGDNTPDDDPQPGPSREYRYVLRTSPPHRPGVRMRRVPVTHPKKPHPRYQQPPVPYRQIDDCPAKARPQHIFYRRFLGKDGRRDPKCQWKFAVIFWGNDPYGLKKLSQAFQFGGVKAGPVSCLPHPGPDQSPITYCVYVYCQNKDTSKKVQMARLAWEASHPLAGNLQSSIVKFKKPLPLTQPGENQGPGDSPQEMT
# Vif A3G: HIV-1 Vif–A3G interaction blockers – biochemical, TR-FRET, GST-Vif 1-94, biotin-A3G peptide, dose response retest, primary screen (AID 1117319); inhibition, %; hits with a dose series show IC50 in µM; 260,000 tested, 0.57% active; TR-FRET GST-Vif / biotin-A3G peptide binding; higher % means a stronger effect; test concentration not given here; strong numbers were not always called active;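 active = above the screen mean plus three standard deviations and confirmed in dose response; inconclusive = results disagree or hit not tested in dose response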;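 also: Vif residues 1-94 fused to GST binding biotinylated APOBEC3G peptide 110-148; 0% = full assay without inhibitor and 100% = GST in place of GST-Vif; retest series ran down from 100 µM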
# Beta cell apopt: blocks beta cell apoptosis. 300,000 tested, 0.8% active. protection from apoptosis, % (no concentration beside the values). INS-1E cytokine-induced death, ATP luminescence, 48 h; percent of positive-control rescue, neutral wells zero. AID 435005;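 active = all replicates at 75% or more, or half of them and the mean; inconclusive = half reach 75% but not the mean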;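 also: 0% = cytokine-treated negative control wells and 100% = positive control rescue; higher means more ATP so stronger rescue from cytokine killing; wells of about 40 µL received 100 nL stock; the first replicate is given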
# T cruzi inh: blocks replication of Trypanosoma cruzi; T. cruzi beta-gal in NIH3T3, luminescence, 90 h; 300,000 tested, 1.4% active; inhibition, % (no concentration beside the values);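 active = mean inhibition across valid replicates above about 55%, limit read from the data; inconclusive = mean below that limit but half or more replicates reach it; inactive = mean below it, under half of replicates reach it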;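 also: signal also drops with host cell toxicity which is not excluded here; 0% = plate median of DMSO wells and 100% = zero luminescence signal; higher percent means less beta-gal luminescence so fewer parasites; stock transfer was 50 nL into about 50 µL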
# Calb FLC: C. albicans growth modulation with fluconazole; C. albicans CaCi-2 (fluconazole-resistant clinical isolate) + fluconazole, Alamar Blue growth, 48 h; growth inhibition, % (no concentration beside the values); 300,000 tested, 0.57% active;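 active = most replicates above 75%; inconclusive = exactly half above 75%; inactive = most below 75%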;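 also: all wells also contain fluconazole at 8 µg/ml as a sub-toxic cotreatment; 0% = median of DMSO wells and 100% = median of geldanamycin control wells; wells of about 8 µL received 7.5 nL stock; the first replicate is given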
# RanGTP-Imp inh: disruptors of Ran-importin-beta complex formation – biochemical, FRET, CFP-Ran, YFP-importin-beta, homogeneous, primary screen; inhibition, % (no concentration beside the values); cell-free CFP-Ran/YFP-importin-beta FRET ratio; 300,000 tested, 1.1% active;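 active = most replicates above 15%; inconclusive = exactly half above 15%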;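 also: 0% = DMSO wells and 100% = Ran loaded with GDP instead of GTP; wells of about 40 µL received 100 nL stock; the first replicate is given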
# AF4-AF9 inh: blocks AF4 peptide binding to human AF9; inhibition, % at 10 µM; 350,000 tested, 0.47% active; P42568; AlphaScreen, biotin-AF4 peptide binding to FLAG-AF9;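 active = every replicate reaching a set inhibition limit, whatever the replicate mean, cut at about 25% in these data; inconclusive = mean inhibition reaches that limit but some replicates miss it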;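 also: 0% = plate neutral control median and 100% = total signal loss; the record names both 10 and 1 µM as test concentration; the first replicate is given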
# Numbers without * were called inactive; ? = inconclusive; nt = not tested or not shown.
1: CC(=O)N1CCOc2ccc(S(=O)(=O)NCC3CCC(C(=O)Nc4ccc(C)cn4)CC3)cc21 (stereo not given)
2: C=CCc1cccc2cc(C(=O)NC3CCCCC3)c(=O)oc12
3: O=C(c1cnn2c(C(F)F)cc(-c3ccccc3)nc12)N1CCN2CCCC2C1 (stereo not given)
4: O=C(CNS(=O)(=O)c1ccc(Br)s1)N1CCN(c2ncccn2)CC1
5: O=C(Oc1cccc(C(=S)N2CCOCC2)c1)c1cc([N+](=O)[O-])cc([N+](=O)[O-])c1
assay / compound	1	2	3	4	5
A1 inh	0.3	-0.8	0.1	nt	0.6
LANA-H2A inh	-5.0	3.1	-12	nt	4.2
Vif A3G	nt	-3%	4%	-2%	nt
Beta cell apopt	20	1	6	nt	0
T cruzi inh	-2	-1	30	-8	-13
Calb FLC	-6	8	-11	-14	21
RanGTP-Imp inh	7.0	0.2	-3.5	4.4	?
AF4-AF9 inh	-2.0	nt	nt	nt	5.3

6: Cn1c(=NC(=O)c2ccccc2[N+](=O)[O-])sc2cccc(F)c21
7: COc1ccc(N(C(=O)CNC(=O)c2ccco2)C(C(=O)NC2CCCCC2)c2ccncc2)cc1 (stereo not given)
8: Cc1cc(C)c(C#N)c(N2CCCC(C(N)=O)C2)n1 (stereo not given)
9: CC1=C(C(=O)Nc2ccccc2)C(c2ccc(C)cc2)N=C(Nc2nc3ccccc3o2)N1 (stereo not given)
10: COC(=O)COc1ccc(C(c2c(C)[nH][nH]c2=O)c2c(C)[nH][nH]c2=O)cc1
assay / compound	6	7	8	9	10
A1 inh	-7.1	0.2	-0.7	2.0	0.6
LANA-H2A inh	-3.2	-5.0	11	-6.3	8.7
Vif A3G	-11%	nt	-1%	-10%	nt
Beta cell apopt	2	2	-4	32	nt
T cruzi inh	-4	1	-3	57*	-10
Calb FLC	-1	-4	2	-11	-3
RanGTP-Imp inh	2.6	4.3	2.2	1.6	4.9
AF4-AF9 inh	-0.7	1.5	nt	nt	-8.2

11: CCCCN(C)CCNC(=O)c1cc(-c2cccnc2)nc2ccc(S(=O)(=O)N3CCC(C)CC3)cc12
12: CCN(CC)c1ccc(-c2nc3cnccn3c2NC2CCCC2)cc1
13: COc1ccc(-c2nnsc2N2C(=O)c3ccccc3C2=O)cc1
14: CCOC(=O)c1c(-c2ccc(C)o2)csc1NC(=O)CN1CCC(C(N)=O)CC1
15: O=C(CCN1CCCC1Cc1ccccc1)c1ccc2c(c1)OCCO2 (stereo not given)
assay / compound	11	12	13	14	15
A1 inh	0.9	0.2	0.3	-8.2	-0.2
LANA-H2A inh	5.9	-2.0	4.0	4.7	-3.9
Vif A3G	nt	9%	4%	-5%	2%
Beta cell apopt	0	9	1	4	-17
T cruzi inh	12	16	-8	6	39
Calb FLC	-3	8	-2	39	-6
RanGTP-Imp inh	4.2	3.1	4.4	2.7	-2.8
AF4-AF9 inh	5.8	nt	nt	4.7	nt

16: Cc1ccccc1N(C(=O)c1snc(C(N)=O)c1N)C(C(=O)NC1CCCC1)c1ccco1 (stereo not given)
17: Cc1ccc(CNC(=O)CCNS(=O)(=O)c2cccs2)cc1
18: CCc1ccc(NC(=O)c2cnn(-c3ccccc3)c2C)cc1
19: CCCCC(=O)Nc1cccc(NC(=O)C(C)C)c1
20: Cc1ccc(S(=O)(=O)NCCc2ccncc2)cc1C
assay / compound	16	17	18	19	20
A1 inh	nt	-0.1	-6.4	-0.5	0.0
LANA-H2A inh	nt	-2.9	4.1	3.9	3.6
Vif A3G	nt	-4%	-9%	13%	6%
Beta cell apopt	nt	-5	6	-7	0
T cruzi inh	10	-11	2	5	-5
Calb FLC	4	-11	18	-1	22
RanGTP-Imp inh	8.2	3.3	?	2.5	2.5
AF4-AF9 inh	2.1	2.2	nt	nt	-3.2

21: CSCCC(NC(=O)C1CCCCC1)c1nc2ccccc2[nH]1 (stereo not given)
22: CC(C)c1ccc(NC(=O)/C(C#N)=C/c2ccncc2)cc1
23: CCOC(=O)c1c(C)nc2sc3c(c2c1-c1ccc(OC)cc1)NC(c1ccccc1)NC3=O (stereo not given)
24: CCC(=Cc1ccc(CC)cn1)CC
25: COC(=O)c1ccccc1NC(=O)c1ccc2c(c1)OCCCO2
assay / compound	21	22	23	24	25
A1 inh	0.2	2.3	0.1	-0.2	-2.7
LANA-H2A inh	1.7	2.1	-3.7	0.9	1.7
Vif A3G	1%	nt	-118%	1%	2%
Beta cell apopt	nt	-8	-15	1	-2
T cruzi inh	-6	2	26	-10	24
Calb FLC	-8	-4	-3	-7	-6
RanGTP-Imp inh	-1.3	?	0.0	3.3	2.2
AF4-AF9 inh	1.7	-4.7	nt	?	-2.3

# Whole records, quoted from the list:
# CCC(=Cc1ccc(CC)cn1)CC as listed: A1 inh = -0.2; LANA-H2A inh = 0.9; Vif A3G = 1%; Beta cell apopt = 1; T cruzi inh = -10; Calb FLC = -7; RanGTP-Imp inh = 3.3; AF4-AF9 inh = ?
# Cc1cc(C)c(C#N)c(N2CCCC(C(N)=O)C2)n1 (stereo not given) as listed: A1 inh = -0.7; LANA-H2A inh = 11; Vif A3G = -1%; Beta cell apopt = -4; T cruzi inh = -3; Calb FLC = 2; RanGTP-Imp inh = 2.2; AF4-AF9 inh = nt

# (more compounds)
26: O=C(c1ccc([N+](=O)[O-])cc1)N(Cc1cccs1)C1CCS(=O)(=O)C1 (stereo not given)
27: Cc1cc(C)c(NC(=O)CN2C(=O)NC3(CCCCC3)C2=O)c(Cl)c1
28: CCOc1ccc(-c2c(C(=O)N/N=C/c3ccc(OC)cc3)nnn2-c2nonc2N)cc1
29: CCOC(=O)c1c(NCc2ccc3c(c2)OCO3)c2ccccc2[nH]c1=O
30: CCn1c(SCC(=O)Nc2ccc3c(c2)OCCO3)nnc1-c1ccccn1
assay / compound	26	27	28	29	30
A1 inh	-0.8	0.4	0.9	-1.1	-0.7
LANA-H2A inh	1.5	1.7	-4.1	0.7	4.4
Vif A3G	nt	21%	-5%	-4%	-7%
Beta cell apopt	-4	-6	-6	-6	-3
T cruzi inh	-11	-12	-13	nt	-2
Calb FLC	0	13	-6	nt	2
RanGTP-Imp inh	5.0	0.7	-0.2	nt	0.6
AF4-AF9 inh	-0.5	-17	nt	nt	nt

31: O=C(CNS(=O)(=O)c1ccccc1)OCC(=O)c1ccccc1Cl
32: Cc1c(NC(=O)c2csc3c2CCCC3)c(=O)n(-c2ccccc2)n1C
33: Cn1c(/C=C/c2ccc([N+](=O)[O-])o2)nc2ccccc2c1=O
34: Cc1ccc2c(CC(=O)NNC(=O)c3ccncc3)coc2c1
35: CCc1cccc(Nc2c3c(nc4ncnn24)CCC3)c1
assay / compound	31	32	33	34	35
A1 inh	0.5	0.6	0.9	-0.6	-1.0
LANA-H2A inh	2.4	-0.6	2.0	1.9	4.1
Vif A3G	nt	-1%	?	5%	nt
Beta cell apopt	nt	-1	106*	-3	0
T cruzi inh	-15	1	67*	-12	-1
Calb FLC	-10	2	4	-3	9
RanGTP-Imp inh	-2.5	3.6	2.5	5.4	-1.6
AF4-AF9 inh	-1.5	-0.2	nt	-1.5	-1.5

36: COc1ccccc1CNC(=O)C1CCC(CNc2c(N3CCCCC3)c(=O)c2=O)CC1 (stereo not given)
37: Cc1oc(-c2ccccc2F)nc1CS(=O)(=O)CC(=O)N1CCCCCC1
38: CCCc1ccc(OCC(O)CN2CCc3ccccc3C2)cc1 (stereo not given)
39: Cc1c(NS(=O)(=O)c2cc(C(=O)N(C)Cc3ccccc3)ccc2Cl)c(=O)n(-c2ccccc2)n1C
40: O=C(CCC1CCN(Cc2ccc(C#CCCO)cc2)CC1)NC1CC1
assay / compound	36	37	38	39	40
A1 inh	-0.1	0.4	-0.4	1.1	-0.3
LANA-H2A inh	-0.6	2.9	-3.4	-1.7	4.9
Vif A3G	-9%	1%	nt	-7%	nt
Beta cell apopt	-1	-6	-6	0	-5
T cruzi inh	5	9	13	nt	8
Calb FLC	-1	-6	-7	nt	1
RanGTP-Imp inh	-7.0	1.1	2.9	nt	2.5
AF4-AF9 inh	-5.4	-6.4	0.3	-2.1	2.2

41: CCc1cc(=O)oc2c3c(cc(OCC(=O)NCCC(=O)O)c12)OC(C)(C)CC3
42: Cc1cccn2c(=O)nc(SCC(=O)N3CCCCCC3)nc12
43: COc1cccc(C(=O)/C=C/Nc2ccc(S(=O)(=O)Nc3cnc4ccccc4n3)cc2)c1
44: COc1cc(C(=O)Oc2cc(C)cc(C)c2)cc(OC)c1OC
45: COc1ccc(NC(=O)CSc2nc(N)cc(N)n2)cc1S(=O)(=O)N1CCCCC1
assay / compound	41	42	43	44	45
A1 inh	1.6	0.4	-0.4	0.6	-1.0
LANA-H2A inh	0.3	-1.9	2.7	2.7	6.8
Vif A3G	4%	6%	nt	-3%	-15%
Beta cell apopt	-4	2	0	-2	-1
T cruzi inh	6	4	-12	2	nt
Calb FLC	3	-2	1	-10	nt
RanGTP-Imp inh	0.9	0.5	-1.6	4.7	nt
AF4-AF9 inh	-2.0	-17	nt	nt	-3.5

46: O=C(NCC(=O)N(c1ccccc1F)C(C(=O)NC1CCCC1)c1ccncc1)c1ccco1 (stereo not given)
47: CCOC(=O)N1CCN(c2nc3ccc(C)cc3n3cnnc23)CC1
48: O=S(=O)(NCC1(N2CCOCC2)CCCCC1)c1ccc(F)c(F)c1F
49: COc1ccc(N2CCN(CCCNC(=O)CN3C(=O)COc4ccccc43)CC2)cc1
50: COc1cccc(NC(=O)COc2ccc(Br)c(C)c2)c1
assay / compound	46	47	48	49	50
A1 inh	-0.6	nt	-0.8	0.6	1.8
LANA-H2A inh	-1.7	nt	-0.3	2.6	-4.5
Vif A3G	2%	-24%	1%	nt	8%
Beta cell apopt	1	nt	3	-1	-2
T cruzi inh	2	-18	2	1	-3
Calb FLC	12	0	-3	-8	2
RanGTP-Imp inh	1.2	5.7	1.1	5.4	-0.1
AF4-AF9 inh	-0.3	-1.1	0.4	?	-0.2

51: CC(NCCc1ccc(O)cc1)C(O)c1ccc(O)cc1 (stereo not given)
52: Oc1cccc(/C=N/Nc2cc(N3CCOCC3)nc(N3CCOCC3)n2)c1
53: C=CCn1c(SCC(=O)NCc2ccc3c(c2)OCO3)nnc1C1CCCCC1
54: CC1=NNC(=O)C1CCC(=O)N/N=C/C=C/c1ccccc1 (stereo not given)
55: Cc1onc(-c2ccccc2)c1C(=O)Nc1ccc(Cl)cn1
56: COc1cc(/C=N/NC(=S)NC(C)C)ccc1OCC(=O)Nc1c(C)cc(C)cc1C
57: Cc1ccccc1NC(=O)c1cccc(NC(=O)c2ccco2)c1
assay / compound	51	52	53	54	55	56	57
A1 inh	-0.3	0.1	-0.9	-0.2	0.8	-0.2	0.1
LANA-H2A inh	-3.1	-3.0	0.9	5.1	2.2	1.5	3.1
Vif A3G	6%	-12%	-7%	nt	3%	-3%	nt
Beta cell apopt	-4	-3	-6	-3	-1	-5	nt
T cruzi inh	-21	7	-3	-8	-5	10	1
Calb FLC	nt	-5	?	-8	-16	0	2
RanGTP-Imp inh	0.8	6.1	-0.9	-1.9	1.1	4.6	-2.4
AF4-AF9 inh	-3.8	nt	nt	0.3	-1.2	nt	0.8
